Source: PubChem (National Center for Advancing Translational Sciences (NCATS))
gsp antagonist = qHTS for Antagonists of gsp, the Etiologic Mutation Responsible for Fibrous Dysplasia/McCune-Albright Syndrome: qHTS | gsp-mutant cells, cAMP HTRF, 30 min; control for the full effect not named in the record | Potency, µM (doses to about 76.9 µM), without a hit: at the top dose activity change, negative = inhibition, most hits filed as inhibitors | 0.4% of 340,000 active | AID 624288, 2012; active = falling curve of any shape with a large fitted effect; inconclusive = falling curve, mostly with a smaller effect; inactive = flat or rising curve; cell line not stated here;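 also: intracellular cAMP measured with PDE inhibitor Ro 20-1724 present during compound exposure; potency is read from the fitted curve at half-maximal effect; % is scaled to controls: 0 for no effect and ±100 for the full control effect; nearly all actives have a fitted effect of over 65% in size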
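HTRF cAMP measurement after 30 min RT detection following 30 min, 37C compound treatment alongside […] (added as 300 uM solution) in G418-selected cells seeded at 2000/well and grown 16–24 h.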
Sfp inh = qHTS Assay for Inhibitors of Bacillus subtilis Sfp phosphopantetheinyl transferase (PPTase) | 4'-phosphopantetheinyl transferase ffp (Bacillus subtilis), Q9F4F7 | Biochemical Sfp PPTase activity, qHTS | Potency, µM, for inactives: max response, negative = inhibition, most hits filed as inhibitors | 3.5% of 310,000 active; active = well fitted inhibition curve with a large enough effect; inconclusive = small, poorly fitted or top-dose-only effect, or another doubt; inactive = no such curve, though single readings can be large or run the other way;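 also: the enzyme is Sfp with the accession as filed and its product quenches rhodamine fluorescence; potency is read from the fitted curve at half-maximal effect; 0% = enzyme reaction without inhibitor and -100% = no enzyme wells; top concentration of the series not given in the record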
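Sfp 15 nM + cpd, 15 min RT; start w/ rhodamine-CoA 5 uM, BHQ-2-YbbR 12.5 uM (final); 50 mM Hepes pH 7.6, 10 mM MgCl2, 0.01% NP-40, 0.01% BSA; read 525/598 nm at 0 and 30 min.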
gsp agonist = qHTS for Agonist of gsp, the Etiologic Mutation Responsible for Fibrous Dysplasia/McCune-Albright Syndrome: qHTS; gsp mutant cells, cAMP HTRF, 30 min; control for the full effect not named in the record; Potency, µM (titrated, usually from 76.9 µM), inactives show top-dose activation (cAMP increase), hits mostly activators; 0.13% of 340,000 active; AID 624287, 2012; active = well fitted activation curve with a large enough effect; inconclusive = small, poorly fitted or top-dose-only effect, or another doubt; inactive = no such curve, though single readings can be large or run the other way; cell line not stated here;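 also: phosphodiesterase inhibitor Ro 20-1724 added with compounds to block cAMP breakdown; potency is read from the fitted curve at half-maximal effect; nearly all actives have a fitted effect of over 60% in size; about a fifth of the inactives were tested at one dose only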
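Cells in DMEM/10% FBS with G418 were pretreated with compounds in DMSO plus […] (300 uM stock) for 30 min at 37C. cAMP was measured by HTRF (cAMP-d2 plus anti-cAMP antibody-K) after 30 min at room temperature.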
Menin MLL FP FL = qHTS Assay for Inhibitors Targeting the Menin-MLL Interaction in MLL Related Leukemias: Competition With Fluorescein Labeled MLL-derived Peptide; Fluorescence polarization, fluorescein-MLL peptide displacement from menin; AID 1766, 2009; FP activity change, % at 61.4 µM; 290,000 tested, under 10 active; inconclusive = falling polarisation curve, or a change in total fluorescence; inactive = total fluorescence flat and polarisation flat or rising; no compound was filed as active; the % refers to the polarisation; negative = inhibition;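 also: % of control where 0% means no effect; inhibitors lower the polarisation; unlabelled MLL peptide was the positive control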
TRPV1 potentiator = HTS Assay for Compounds that Act as Potentiators of the Vanilloid Receptor 1 | Transient receptor potential cation channel subfamily V member 1 (Homo sapiens), Q8NER1 | TRPV1-expressing cells, Fluo-8 calcium influx, capsaicin EC20 potentiation; host cell line not named in the record; control for the full effect not named in the record | potentiation, % at 8.33 µM | 0.02% of 320,000 active; active means potentiation above 80%; inconclusive means 30% to 80%; inactive means below 30%; also: 0% is about no effect
Target sequence (Q8NER1 whole entry, looked up): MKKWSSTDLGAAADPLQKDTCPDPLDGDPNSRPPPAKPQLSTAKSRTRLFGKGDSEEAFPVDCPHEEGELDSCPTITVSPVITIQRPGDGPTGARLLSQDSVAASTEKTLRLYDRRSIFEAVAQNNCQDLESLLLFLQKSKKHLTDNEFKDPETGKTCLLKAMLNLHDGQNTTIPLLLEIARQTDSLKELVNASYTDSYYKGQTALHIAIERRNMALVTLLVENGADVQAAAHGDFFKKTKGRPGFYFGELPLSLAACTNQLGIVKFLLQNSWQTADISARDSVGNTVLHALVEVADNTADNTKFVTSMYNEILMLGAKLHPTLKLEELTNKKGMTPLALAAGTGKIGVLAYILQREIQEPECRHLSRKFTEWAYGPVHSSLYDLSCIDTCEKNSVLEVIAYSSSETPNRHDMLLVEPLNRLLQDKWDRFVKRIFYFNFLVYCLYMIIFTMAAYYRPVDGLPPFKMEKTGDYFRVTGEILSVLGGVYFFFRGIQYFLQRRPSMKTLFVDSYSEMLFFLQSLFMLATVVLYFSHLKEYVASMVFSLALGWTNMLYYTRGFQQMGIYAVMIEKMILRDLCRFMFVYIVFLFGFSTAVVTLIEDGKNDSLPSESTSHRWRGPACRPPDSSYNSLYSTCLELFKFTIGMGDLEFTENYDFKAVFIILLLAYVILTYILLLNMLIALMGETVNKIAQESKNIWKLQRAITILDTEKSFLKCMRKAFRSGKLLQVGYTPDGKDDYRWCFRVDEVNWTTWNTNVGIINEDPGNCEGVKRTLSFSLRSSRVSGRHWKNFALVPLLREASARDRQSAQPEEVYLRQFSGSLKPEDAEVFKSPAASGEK
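Cells expressing TRPV1 were dye-loaded with Fluo-8 and read kinetically: 10 s baseline, 3 min after compound (agonist portion), then 2 min after EC20 capsaicin (allosteric enhancer portion). Calcium-bound dye fluorescence at 480/520 nm.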
ClpP mod = qHTS Assay for Activators of ClpP; ATP-dependent Clp protease proteolytic subunit (Bacillus subtilis (strain 168)), P80244; purified B. subtilis ClpP, FRET peptide cleavage, 20 min; Potency, µM (series often up to 57.5 µM), inactives show top-dose activity change, negative = active; 1.9% of 340,000 active; AID 651965, 2013; active = well fitted falling curve with a large enough effect; inconclusive = small, poorly fitted or top-dose-only effect; inactive = no such curve, though single readings can be large or run the other way; also: potency is read from the fitted curve at half-maximal effect; the source files actives as falling curves though it sought activators and does not explain the sign; nearly all actives have a fitted effect of over 65% in size; many hits overshoot -100%
Target sequence (P80244 whole entry, looked up): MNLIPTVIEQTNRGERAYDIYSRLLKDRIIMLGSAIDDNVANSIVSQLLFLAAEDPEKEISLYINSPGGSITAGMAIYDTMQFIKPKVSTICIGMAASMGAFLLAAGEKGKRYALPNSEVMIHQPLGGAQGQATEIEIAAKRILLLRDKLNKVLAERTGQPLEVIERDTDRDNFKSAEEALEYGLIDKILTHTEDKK
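ClpP 10 microg/mL final, pH 8 Tris/KCl buffer with BSA, glycerol, Tween-20; compound pinned in; FRET-FV substrate; RT 20 min; Ex320/Em430; ΔFRET vs ADEP 5.8 microM, DMSO, no enzyme.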
CtBP-E1A inh = qHTS Assay for Inhibitors of the CtBP/E1A Interaction | AID 651724, 2012 | AlphaScreen GST-E1A/His-CtBP binding, 1536-well; hits give low values; control for the full effect not named in the record | activity change, % (no concentration beside the values) | 0.49% of 340,000 active | CtBP / adenovirus E1A interaction (AlphaScreen); in the data active means activity change below about -65%; inconclusive means about -30% to -65%; inactive means above about -30%; also: % is scaled to controls: 0 for no effect and ±100 for the full control effect; compound concentration not given in the record
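Steps: dispense buffer (Tris pH 8.0, NaCl 300 mM, TCEP 1 mM, BSA, Tween 20); add 5X protein mix (GST-E1A, His-CtBP, 125 nM each); pin 23 nL compound; 2 h at 37 °C, dark; add 5X beads (50 ug/mL); 1 h; read.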
An asterisk follows results filed as active; ? = inconclusive; · = not tested or not shown; & = joins results of further samples; [ ] = another dose, or the depositor's remark.

mol,gsp antagonist,Sfp inh,gsp agonist,Menin MLL FP FL,TRPV1 potentiator,ClpP mod,CtBP-E1A inh
Cc1cccc(C)c1OCc1cc(C(=O)NCc2ccc(Cl)s2)no1,-2.9%,19.2%,2.9%,9.2,-1.6,-0.3%,22.4
O=C(COC(=O)c1cccc(S(=O)(=O)N2CCOCC2)c1)Nc1ccc2c(c1)OCO2,-1.4%,17.5%,?,0.2,-3.3,-1.3%,-0.5
CCc1nnc(NC(=O)CN2CCN(Cc3ccccc3C)CC2)s1,2.6%,6.1%,-11.8%[15.4 µM],0.5,-1.8,-1.2%,-9.4
Cc1ccc([C@@H]2C[C@H]3[C@@H](CN2S(=O)(=O)c2ccc(C)cc2)C(=O)C[C@@H](c2ccc(C)cc2)N3S(=O)(=O)c2ccc(Cl)cc2)cc1,·,·,18.9%,·,·,-1.4%,-2.5
O=C(COC(=O)c1cc(Cl)ccc1O)Nc1cc(C(F)(F)F)ccc1N1CCOCC1,-26.4%,·,-0.5%,·,·,96.5%,8.6
COc1ccc2nc(-c3ccccc3)[nH]c(=O)c2c1,2.0%,·,·,·,·,-10.7%,-1.0
COc1ccccc1/C=C/C1(C(=O)NC2CCCC2)CC(=O)N1c1ccccc1 (centres undefined),8.4%,2.4%,26.1%,4.7,7.5,2.8%,·
O=C(NCc1ccncc1)c1cc(-c2ccc(Cl)cc2)oc1C(F)(F)F,14.0%,16.0%,-26.4%,-0.4,-7.5,-8.1%,·
Cc1ccc(OCCNC(=O)Cn2cnc3c(=O)n(C)c(=O)n(C)c32)cc1C,16.2%,11.3%,28.1%,4.8,11.9,-0.5%,4.3
O=C(CN(C(=O)C1COc2ccccc2O1)c1ccccc1)NCC1CCCO1 (centres undefined),3.3%,23.1%,?,1.2,15.4,0.1%,11.4
CC1CCCCN1S(=O)(=O)c1ccc(C(=O)Nc2nnc(C3CC3)o2)cc1 (centres undefined),-13.7%,17.6%,?,3.8,25.3,0.3%,?
O=C(Nc1cccc(O)c1)c1ccccc1,1.5%,13.1%,-3.3%,3.8,-23.0,-0.4%,1.7
O=C(O)CC1C(=O)NCCN1Cc1cccs1 (centres undefined),12.9%,14.1%,-45.7%[inhibitor],2.4,7.8,1.4%,·
COc1ccc(NC(=O)CSc2nnc(Cn3cnc4ccccc43)o2)cc1,·,26.6%,-7.6%[15.4 µM],0.4,1.2,·,-12.7
Cc1ccc(SCc2cn3cc(Cl)ccc3n2)cc1,-1.9%,-6.4%,-23.7%[15.4 µM],0.0,-21.5,·,4.5
CCN(CC)S(=O)(=O)c1ccc(C)c(NC(=O)CNc2cccc(S(=O)(=O)N3CCCC3)c2)c1,-23.9%,·,?,·,7.6,-1.8%,-1.9
COc1cc(C)c(C)cc1S(=O)(=O)N1CCCCC1c1cccnc1 (centres undefined),-25.4%,5.5%,3.8%,0.1,-0.8,-2.2%,-1.4
O=C(/C=C/Nc1ccc(S(=O)(=O)Nc2ncccn2)cc1)c1ccc(Cl)c(Cl)c1,-7.2%,12.8%,-9.0%[15.4 µM],4.1,3.3,0.0%,-8.1
COc1ccc(S(=O)(=O)N2CCCCCC2)cc1C(=O)NCc1ccccc1Cl,-1.0%,·,8.1%,·,2.7,25.1µM*,-15.1
COc1ccc(CC(=O)Nc2cccc(SC)c2)cc1,-13.5%,-4.5%,-3.2%,0.1,2.2,0.7%,21.5
COc1cc2nc(CN(CCC(C)C)Cc3nc4cc(OC)c(OC)cc4c(=O)[nH]3)[nH]c(=O)c2cc1OC,-0.8%,6.9%,10.1%,2.3,-2.7,-1.1%,-9.5
CCOC(=O)c1nncc(-c2ccccc2)n1,-2.0%,·,·,·,2.3,-1.2%,1.5
CCOc1ccc(C(C)NC(=S)NC2CCCCC2)cc1OCC (centres undefined),·,14.6%,1.6%[15.4 µM],-1.8,-12.3,·,-15.7
O=c1c2ccc(Cl)cc2[nH]c(=S)n1CCCN1CCOCC1,4.3%,-12.0%,0.5%[15.4 µM],-2.2,-6.3,-1.4%,-19.7
Cc1ccc(C(=O)N/C(=C/c2cccc([N+](=O)[O-])c2)C(=O)NCC2CCCO2)cc1 (centres undefined),-0.1%,2.8%,-17.5%,-2.9,0.5,1.0%,-0.3
CCc1nc(SCC(=O)NNC(=O)C2CCCCC2)c2ccccc2n1,2.0%,10.1%,?,4.3,14.5,-0.1%,4.6
Cc1ccc(N2C(=O)CC(N(O)C3CC(=O)N(c4ccc(C)cc4)C3=O)C2=O)cc1 (centres undefined),-14.2%,17.1%,-25.0%,7.1,-5.1,2.7%,0.7
COC(=O)CSC1=C(C#N)C(c2ccc(C)cc2)C2=C(CCCC2=O)N1 (centres undefined),-11.7%,56.2µM*,28.2%,-0.3,-6.0,-8.4%,1.7
Cc1cc(C)c2cc(CN(CCCO)S(=O)(=O)c3ccccc3F)c(=O)[nH]c2c1,0.5%,-2.0%,-14.7%,0.6,7.0,·,-2.7
NS(=O)(=O)c1ccc(NC(=O)COC(=O)c2ccco2)cc1,7.3%,15.1%,-35.6%[inhibitor],1.8,9.2,-1.1%,-2.8
O=C(C[C@@H]1NS(=O)(=O)OC2CCCCC21)c1ccccc1 (some centres undefined),7.7%,-5.0%,·,-0.5,-5.1,-0.6%,1.3
O=C(CC1C(=O)NCCN1C(=O)Nc1ccccc1)Nc1cccc(C(F)(F)F)c1 (centres undefined),-4.1%,10.7%,9.8%,3.2,6.0,-2.0%,-15.2
O=c1cc(O)c2c(=O)n(-c3ccccc3)c3c(c2o1)CCCCCC3,?,5.5%,-46.9%[inhibitor],10.2,4.5,-12.7%,10.0
Cc1cc(C)cc(OCC(=O)N/N=C/c2ccco2)c1,·,14.4%,-2.4%[15.4 µM],1.7,?,·,-16.2
Cc1ccc(NC(=O)CC(O)(C(F)(F)F)C(F)(F)F)c(Br)c1,-30.7%,4.0%,-2.3%,2.6,7.6,-0.1%,6.5
Cc1cccc(NS(=O)(=O)c2cc3c(cc2C)N(C)CCO3)c1,0.7%,16.7%,?,-0.5,-10.0,-0.9%,-5.3
COc1ccc(CCNc2ncnc3cc(OC)c(OC)cc23)cc1OC,?,-7.0%,-30.6%[inhibitor],0.7,1.8,-1.3%,-13.4
CCCc1ccc2oc(C(=O)N3CCN(CC(=O)NC(C)C)CC3)c(C)c2c1,-5.7%,8.4%,?,2.7,-16.9,0.4%,11.1
COC(=O)c1c(-c2ccc(Br)cc2)csc1NC(=O)Cc1ccc(OC)c(OC)c1,-11.6%,-5.5%,-39.6%,0.6,14.9,-4.4%,-9.2
Nc1sc2c(c1C(=O)NC1CCS(=O)(=O)C1)CCC2 (centres undefined),-6.9%,17.8µM*,3.2%,-15.5,-0.9,-0.2%,-2.6
Cc1cc(-c2ccccc2)c2ccc(NC(=O)C(C)(C)C)nc2n1,?,1.0%,?,0.2,-13.1,4.6%,·
N=C1/C(=C\c2ccc(SCc3ccccc3)o2)C(=O)N=C2SC(CC(=O)N3CCOCC3)=NN12,-1.2%,-21.3%,1.2%,?,3.0,-2.3%,·
Clc1ccccc1CN1CCN(/N=C/C=C\c2ccco2)CC1,-7.2%,-48.9%,0.7%[15.4 µM],-1.7,5.4,·,11.5
CCOC(=O)c1cnc2c(cnn2C)c1Cl,1.4%,11.8%,31.3%[15.4 µM],-1.8,17.7,·,-1.8
COc1cccc(NC(=O)CSc2ccc3nnc(-c4ccncc4)n3n2)c1,15.0%,0.2%,?,2.0,-5.8,0.3%,-15.9
COc1cccc(N(C(=O)c2ccco2)C(C(=O)NC2CCCC2)c2ccc(N(C)C)cc2)c1 (centres undefined),-14.9%,2.9%,-3.3%,0.8,-9.4,-2.4%,-13.0
COc1cccc(-c2nnc(NC(=O)c3ccc(S(=O)(=O)N(CC(C)C)CC(C)C)cc3)o2)c1,0.3%,8.5%,-25.2%,1.2,29.5,10.2%,9.1
Cc1oc(-c2ccccc2Cl)nc1CS(=O)(=O)CC(=O)NCCN1CCOCC1,8.8%,8.9%,-0.2%,-0.2,-9.3,1.9%,-2.1
Cc1noc(C)c1CSCC(=O)N(C)CC(=O)Nc1ccccc1C(F)(F)F,3.9%,·,-5.7%,·,16.9,-2.3%,·
COc1cccc(-c2cc(C(=O)N/N=C/c3ccco3)c3ccccc3n2)c1,0.7%,4.5%,-17.1%[15.4 µM],0.8,-0.5,0.4%,-9.1

(cont.)
mol,gsp antagonist,Sfp inh,gsp agonist,Menin MLL FP FL,TRPV1 potentiator,ClpP mod,CtBP-E1A inh
CC(Sc1nnc(-c2ccccc2)c(-c2ccccc2)n1)C(=O)N1CCc2ccccc21 (centres undefined),-14.2%,-12.2%,9.3%,9.5,-3.3,1.3%,?
Cc1cc(OCc2ccc(F)cc2)nc(-c2ccccc2O)n1,-0.2%,?,25.9%,0.6,11.7,-7.1%,69.0
CC(CC(=O)NC1CCSC1=O)c1ccccc1 (centres undefined),11.0%,-4.1%,11.3%,-1.0,-4.7,1.2%,8.7
Cc1ccc(NC(=S)N/C(=N/S(=O)(=O)c2ccccc2)c2ccccc2)cc1,-1.7%&-11.5%,?,-18.8%&-11.0%,-1.2,-1.5,-1.1%&-1.4%,0.1&-4.8
Cc1nn(C)cc1C(=O)NNC(=S)Nc1ccccc1,5.3%,11.4%,-0.7%,1.5,-10.2,-1.5%,-3.0
